# Assay outcomes: PubChem BioAssay, ICCB-Longwood Screening Facility, Harvard Medical School
# AID504770: growth inhibitors of E. coli YBA685 in a screen for V. cholerae RctB (chromosome II replication) inhibitors. E. coli YBA685 rctB-dependent plasmid, OD600 growth, 3 h; hits give low values. z-score (test concentration not listed). hit rate 0.27% among 130,000. AID 504770;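 active means z-score under -2 on both plates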;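 further: wells of about 30 µL received 100 nL stock; score is relative to mean and SD of the test wells; the first replicate is given; strong numbers were not always called active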
# Ba CapD inh: CapD enzyme inhibition. purified CapD enzyme, fluorescence intensity read-out; hits give low values; some hits fall short of the stated cut. z-score (test concentration not listed). hit rate 0.23% among 140,000;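 active means z-score under -4 in either of two replicates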;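 further: stock transfer was 100 nL into about 40 µL; score is relative to mean and spread of the plate; one replicate is shown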
# Numbers without * were called inactive; . = no result given; & = joins results of further samples.
Molecule	AID504770	Ba CapD inh
C/C(=N\NC(=O)C1C(c2ccccc2)C(C(=O)N2CCOCC2)C1c1ccccc1)c1ccc(Br)cc1 (configuration not stated)	.	6
COc1c(Cl)cc(Cl)cc1C(C1C(=O)N(c2ccccc2)N=C1C)C1C(=O)N(c2ccccc2)N=C1C (configuration not stated)	.	-0.5
O=C(CCCc1c[nH]c2ccccc12)N1CCN(S(=O)(=O)Cc2ccccc2)CC1	-0.5	.
CCOc1ccc(-c2cc(C(=O)NCCCN3CCCCC3)c3ccccc3n2)cc1	-0.15	0.1
Cc1sc2nc(CN(CCc3ccccc3)C(=O)c3ccco3)[nH]c(=O)c2c1C	0.35	.
NC(=O)CSc1n[nH]c(-c2ccco2)n1	-0.45	.
CC(=O)N/C(=C\c1cnc(-c2ccccc2)[nH]1)C(=O)O	1.5	0.45
C=CCOc1ccc(CN2CCN(C(=O)Cc3ccc(F)c(F)c3)CC2)cc1	.	0.47

# Following part:
Molecule	AID504770	Ba CapD inh
Cc1ccc(Cl)cc1N1CCN(CCNC(=O)CCCn2sc3ccccc3c2=O)CC1	-1.3	-0.81
COc1ccc(CCN2C(=O)/C(=C/c3c(NCCO)nc4ccccn4c3=O)SC2=S)cc1OC	.	0.7
Cc1cccc(NC(=O)Nc2ccc(C)c(C)c2)c1	0.05	-0.11
O=C(c1cc(-c2ccccc2)nn1-c1ccccc1)N1CCC1	-0.65	.
Cc1ccc2cc3cc(C(=O)NCCN4CCN(c5cccc(Cl)c5)CC4)sc3nc2c1	-0.35	0.17
O=c1cc(OCc2ccccc2)c2ccccc2[nH]1	0.25	.
COc1ccc(NC(=O)c2ccc3c(=O)n(-c4ccc(OC)c(OC)c4)c(=S)[nH]c3c2)cc1OC	.	-0.43
O=C1CCC(c2ccccc2)(c2ncc(C(F)(F)F)cc2Cl)C(=O)N1 (configuration not stated)	.	0.32

# More results:
Molecule	AID504770	Ba CapD inh
O=C(O)c1cccc(CSc2nc3ccccc3o2)c1	-0.4	-0.42
CCCNC(=O)C1CCN(Cc2nc(-c3ccc(OC)c(OC)c3)oc2C)CC1	0.3	-0.44
O=c1[nH]nc(SCc2cc(Cl)cc3c2OCOC3)n1CC1CCCO1 (configuration not stated)	-0.3	.
O=C(O)CSc1ccccn1	.	-0.44
O=C(C1CNc2ccccc2O1)N1CCOCC1 (configuration not stated)	-0.5	.
COc1ccc(-n2cccc2/C=C2/NC(=O)NC2=O)cc1	.	-0.005
O=C1CC(C(=O)Nc2cc(Cl)cc(Cl)c2)C2=C(CCCC2=O)N1 (configuration not stated)	0	.
CC(=NCc1nnc(C)s1)c1cc2c(=O)n(C)c3ccccc3c2oc1=O	1.6	5.3

# Continued.
Molecule	AID504770	Ba CapD inh
CCN1CCN(C(=O)/C(C#N)=C/c2cc(C)n(C3CCCC3)c2C)CC1	-1	.
Cc1ccc(C(=O)C[n+]2cc(-c3ccc(C)cc3)n3c2CCCCC3)cc1	.	-0.37
O=C(NCc1ccccc1)NCc1c(-n2cccc2)sc2c1CCCC2	-0.5	-0.13
COc1ccc(C)cc1NC(=O)N1CCN(S(C)(=O)=O)CC1	-0.5	0.26
O=C1OC(c2ccc(O)cc2)Nc2ccc(C(F)(F)F)cc21 (configuration not stated)	1.6	96
N#Cc1cc2c(=O)n3ccccc3nc2n(Cc2ccco2)c1=N	0.5	.
CC1CCN(C(=O)c2ccc3c(c2)nnn3C)CC1	-0.25	.
CC1C2CCC(CO)(CC2)C1C (configuration not stated)	0.4	-0.43

# Continuation:
Molecule	AID504770	Ba CapD inh
CCOc1ccc(NC(=O)Cn2c(Nc3ccc(OCC)cc3)nc3c2c(=O)[nH]c(=O)n3C)cc1	-1.6	.
COC(=O)c1cccc(C(=O)OC)c1	1.2	0.78
Nc1nonc1N1CCCCC1	-0.05	-0.31
Cc1ccc(S/C(=C/N(C)C)C(=O)c2ccc(C)cc2)cc1	-1.6	7.6
CO[C@@]1(NC(=O)Cc2cccs2)C(=O)N2C(C(=O)O)=C(COC(N)=O)CS[C@@H]21	-0.05	-0.01&-0.41
NS(=O)(=O)c1ccc(CNC(=O)c2cc(=O)c3ccccc3o2)cc1	-0.15	-0.4
CNc1nc2cc(Cl)ccc2s1	-0.15	0.03
C=CCN1C(=O)/C(=C\c2ccccc2)C(C(=O)OC)=C1C	-0.1	-1.3

# Exported field by field: 3 of the compounds above.
NS(=O)(=O)c1ccc(CNC(=O)c2cc(=O)c3ccccc3o2)cc1
  AID504770: -0.15
  Ba CapD inh: -0.4

CNc1nc2cc(Cl)ccc2s1
  AID504770: -0.15
  Ba CapD inh: 0.03

C=CCN1C(=O)/C(=C\c2ccccc2)C(C(=O)OC)=C1C
  AID504770: -0.1
  Ba CapD inh: -1.3

# More entries:
Molecule	AID504770	Ba CapD inh
O=c1/c(=C\c2cccc(Cl)c2)sc2nc(-c3cccs3)nn12	-0.25	-0.58
Nc1cccc2c1C(=O)N(C(=O)C1CCCN1C(=O)c1cccs1)C2=O (configuration not stated)	0.15	.
CCc1ccc(C(=O)NCc2nnc(SC)n2CC)cc1	-0.55	.
CC(C)(C)OC(=O)N(C/C=C/c1ccccc1)CCOC(=O)N1CCN(c2nccnc2C#N)CC1	.	0.38
O=C(/C=C/c1ccco1)N1CCC(Cc2ccccc2)CC1	-0.35	.
CN(Cc1ccccc1)C1CCN(Cc2cc(Br)ccc2O)CC1	-1.9	0.32
O=C(Nc1cccc(C(F)(F)F)c1)N1CCSc2cc(Cl)ccc21	.	0.53
O=S(=O)(NCC(Sc1nnnn1-c1ccccc1)c1ccccc1)c1ccc(Cl)s1 (configuration not stated)	1.9	.

# Next section:
Molecule	AID504770	Ba CapD inh
O=C(NCc1ccncc1)c1cccc(Nc2nc3ccccc3n3nnnc23)c1	-0.9	0.23
O=C(O)c1sc2sccc2c1Cl	0	.
NC(=S)NNc1ccc(F)cc1	1.2	0.075
COc1ccccc1-c1nnc(SCC(=O)O)n1-c1ccccc1	0.35	-0.35
CCOCC(=O)Nc1cc(C)on1	-1.2	-0.15
CCOC(=O)CSc1nc2c(c(-c3ccc(C)o3)c1C#N)CCCC2	.	23
CCOC(=O)C1(C)/C(=N\Nc2ccc(C)cc2)C(=O)C(=O)N1c1ccccc1 (configuration not stated)	.	0
Cc1ccc2c(C)nc(Nc3nccc(C)n3)nc2c1	0.8	.

# (continued)
Molecule	AID504770	Ba CapD inh
N#CCn1c(=O)oc2ccccc21	-0.65	.
CCOC(=O)CSc1nnc(NC(=O)C(C)C)s1	0.1	0.79
O=C(N/N=C/c1sc(Nc2ccccc2)nc1Cl)C1CC1	0.4	.
Cc1c2cnn(CC(=O)NC3CCC(C)CC3)c(=O)c2c(C)n1Cc1ccc(F)cc1 (configuration not stated)	-0.45	1.2
Nc1ccc(Oc2cccc(Oc3ccc(N)cc3)c2)cc1	-0.35&0.1	0.84&-0.82
O=c1c(-c2ccc(Cl)cc2)coc2cc(OC3OC(CO)C(O)C(O)C3O)ccc12 (configuration not stated)	.	-1.4
CCCNS(=O)(=O)c1cccc2cccnc12	1.1	50
CCOC(=O)c1sc(=S)n(C)c1C	-0.65	.

# Going on with the list:
Molecule	AID504770	Ba CapD inh
Cc1cccc(OCCOC(=O)c2ccc(O)cc2)c1	0	-0.04
O=C1CCCc2cc(S(=O)(=O)NCC3CCN(Cc4cccc(F)c4)CC3)ccc2N1	0.1	0.31
Cc1cc(C)n(C(C)C(=O)Nc2ccccc2C)c(=O)n1 (configuration not stated)	1.1	-0.49
COc1ccccc1C1CCN(c2ncnc3scc(-c4ccccc4)c23)CC1	.	-0.33
CC(=O)Nc1cc2cc(NC(=O)c3ccccc3C(F)(F)F)ccc2oc1=O	-0.65	-0.89
O=C(Nc1ccc(-c2cn3c(n2)SCC3)cc1)c1ccc(Br)o1	-0.95	.
Cn1cc(SCC(=O)NC2CCCC2)c2ccccc21	-0.5	.
COc1ccc(C(=O)OCC(=O)c2ccc(C)cc2)cc1OC	1.4	.

# Carrying on.
Molecule	AID504770	Ba CapD inh
CCCn1c(SCC(=O)N2CCc3ccccc3C2)nc(O)cc1=O	-0.35	.
O=C(CCc1ccccc1)Nc1cccnc1	-0.65	0.12
COc1cnc(N)nc1	0.25	100
CC1=C(C(=O)Nc2ccccn2)C(c2ccc(N(C)C)cc2)n2ncnc2N1 (configuration not stated)	.	-0.34
CCCCCCC(=O)c1ccc(Br)cc1	.	-0.66
CC1=C(C)CC(C(=O)c2ccc(C)cc2)C(C(=O)O)C1 (configuration not stated)	-1.3	0.67
O=C1CNC(=S)N1CC1CCCO1 (configuration not stated)	-0.95	.
COc1cccc(-n2cc(C(=O)N(C)c3ccccc3)c3ccccc3c2=O)c1	1.5	3.8

# (cont.)
Molecule	AID504770	Ba CapD inh
Nc1cc(=O)nc(SCC(=O)NCc2ccccc2)n1-c1ccccc1	-0.35	2.7
COc1ccc(/C=C2\SC(N3CCN(C(=O)CCN4C(=O)/C(=C\c5ccc(OC)cc5)SC4=S)CC3)=NC2=O)cc1	.	0.42
COC(=O)C(Cc1c[nH]c2ccccc12)NC(=O)OCCSCCNC(=O)c1sc2ccccc2c1Cl (configuration not stated)	.	-1.2
N/C(=N\O)c1ccc(Oc2c(Cl)cncc2Cl)cc1	0.8	0.13
CSc1nc2ccccc2c(=O)n1N	-0.25	.
CNNC(=S)Nc1ccc(Cl)cc1	0.3	-0.35
CC(=O)Nc1ccc(C)cc1N=Cc1ccncc1	-0.5	1.6
OC1CCCN(Cc2ccccc2)C1 (configuration not stated)	1.2	0.59

# Further results.
Molecule	AID504770	Ba CapD inh
CCOC(=O)c1cc(-c2ccc(/C=C3\C(=O)N(c4ccc(S(N)(=O)=O)cc4)N=C3C(F)(F)F)o2)ccc1Cl	.	2.8
C=CCSc1nc2sc3c(c2c(=O)[nH]1)CC(C)(C)OC3	1.6	.
O=C(Cc1cccc(C(F)(F)F)c1)Nc1nccs1	-0.5	.
Fc1ccccc1CNC1CC1	0.55	.
O=S(=O)(c1ccccc1OC(F)(F)F)N1CCN(c2nc(-c3ccccc3)ns2)CC1	.	-0.27
CCCC(=O)N(c1ccc2oc(C)c(C(C)=O)c2c1)S(=O)(=O)c1cccc([N+](=O)[O-])c1	.	-0.11
N#Cc1ccc(N2CCN(S(=O)(=O)c3ccc(Cl)cc3)CC2)cc1	.	0.11
c1ccc(-c2csc3ncnc(NCCCN4CCOCC4)c23)cc1	0.6	0.23

# Following part
Molecule	AID504770	Ba CapD inh
S=C(SCSc1nc2ccccc2s1)N1CCCCC1	-0.4	-0.24
Cc1cc(C(=O)COc2ncnc3sccc23)c(C)n1-c1ccccc1	-0.35	.
O=c1[nH]c(=O)n(-c2ccccc2)c(O)c1C=NCCO	0.05	0.23
N/C(=N\OC(=O)CC1CCCCC1)c1ccccc1	-0.6	0.15
Cn1c(SCC(=O)NCc2ccco2)nnc1-c1c[nH]c2ccccc12	0.6	41
CCCNC(=O)NNc1cccc(C)c1	-0.3	.
CC(C)Cc1ccc(/C=C/C(=O)N2CCCC2)cc1	-0.1	-0.38
O=C1/C(=C/c2ccc([N+](=O)[O-])cc2)C=C(c2ccccc2)N1c1ccc(O)cc1	.	0.4

# Continued:
Molecule	AID504770	Ba CapD inh
CCOC(=O)c1sc2nc(C)c(C(=O)Nc3ccccc3)c(-c3ccc(OC)cc3)c2c1N	.	0.6
Cc1ccc(/C=N/NC(=O)c2ccc(OC(F)(F)F)cc2)s1	.	0.26
Cn1nc(C(=O)Nc2cccc3ccccc23)ccc1=O	-0.2	.
Cc1ccc(-n2nc(C)c(C(=O)N(Cc3ccccc3)C(C)C)c2-n2cccc2)cc1	0.6	-1.1
COc1ccc(CN(CCCN)CCC2(c3ccccc3)CC(C)N(C)CC2C)cc1OC (configuration not stated)	-0.55	0.49
c1ccc(CN2CC(c3nn[nH]n3)CN(Cc3ccccc3)C2)cc1	-0.55	0.22
N#Cc1c(N2C(=O)C3C4C=CC(C4)C3C2=O)sc2c1CCC2 (configuration not stated)	0.45	-0.39
CCNc1nc(OC)nc(N2CC(=O)N(CC(=O)OCC)C2=N)n1	.	-0.04

# (cont.)
Molecule	AID504770	Ba CapD inh
CCOC(=O)N1CCC(Nc2nc3ccc(C)cc3nc2-n2nc(C)cc2C)CC1	-0.9	9.4
O=C(CSc1nc2c(c(C(F)(F)F)n1)CCc1ccccc1-2)N1CCCC1	0	0.12
COC(=O)c1sc2ccccc2c1NC(=O)c1ccc2c(c1)OCCO2	0.1	35
O=C(N/N=C/c1ccccc1)c1ccccc1Oc1ccccc1	.	-0.16
O=C(C1=C(O)C(=O)N(Cc2cccnc2)C1c1ccc(F)cc1)c1cccs1 (configuration not stated)	-0.75	-0.33
c1ccc2c(c1)nnn2CNCn1nnc2ccccc21	-0.25	0.17
OCCN1CCN(CC(O)COCc2ccc(Cl)cc2)CC1 (configuration not stated)	-0.5	-0.035
CNC(=O)c1ccccc1Sc1ccccc1	-0.55	-0.54

# The last 2 records of the part above are carried over, then new ones follow:
Molecule	AID504770	Ba CapD inh
OCCN1CCN(CC(O)COCc2ccc(Cl)cc2)CC1 (configuration not stated)	-0.5	-0.035
CNC(=O)c1ccccc1Sc1ccccc1	-0.55	-0.54
COc1ccc(-c2nc3ccccc3c(=O)n2NCc2cccc(Br)c2)cc1OC	.	0.23
CCCCN(CN1C(=O)C2CC=C(Cl)CC2C1=O)CN1C(=O)C2CC=C(Cl)CC2C1=O (configuration not stated)	.	0.23
COc1ccc(OC)c(NS(C)(=O)=O)c1	-0.9	0.17
COc1cc(C(=O)NCC2CCCO2)cc(OC)c1OC (configuration not stated)	-0.75	-0.96
CC(C)Nc1nc(Cl)nc(Nc2nc(-c3ccccc3)cs2)n1	.	-0.24
O=C(C1CCN(S(=O)(=O)c2cnc[nH]2)CC1)N1CCN(Cc2ccc3c(c2)OCO3)CC1	-0.35	-0.12
CCC1CCCCN1S(=O)(=O)c1ccc(S(=O)(=O)n2cnc3cc(C)c(C)cc32)cc1 (configuration not stated)	-0.1	.
